From PubChem
TRPML1 inh: blocks the human TRPML1 channel. 390,000 tested, 0.02% active. TRPML1-inducible cells, Ca2+ dye fluorescence, FDSS; active compounds read low; inhibition of EC80 agonist-evoked calcium signal. activity change, negative = inhibition, % (no concentration beside the values). Q9GZU1. AID 624415; in the data active means activity change below about -50%; inconclusive means about -30% to -50%; inactive means above about -30%;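 note: stimulus is agonist 54-4 at its EC80 concentration; % is set by controls: 0 for no effect and ±100 for the full control effect; compound concentration not given in the record; the text of the record puts the active cut at -80%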
Target sequence (Q9GZU1 whole entry, looked up): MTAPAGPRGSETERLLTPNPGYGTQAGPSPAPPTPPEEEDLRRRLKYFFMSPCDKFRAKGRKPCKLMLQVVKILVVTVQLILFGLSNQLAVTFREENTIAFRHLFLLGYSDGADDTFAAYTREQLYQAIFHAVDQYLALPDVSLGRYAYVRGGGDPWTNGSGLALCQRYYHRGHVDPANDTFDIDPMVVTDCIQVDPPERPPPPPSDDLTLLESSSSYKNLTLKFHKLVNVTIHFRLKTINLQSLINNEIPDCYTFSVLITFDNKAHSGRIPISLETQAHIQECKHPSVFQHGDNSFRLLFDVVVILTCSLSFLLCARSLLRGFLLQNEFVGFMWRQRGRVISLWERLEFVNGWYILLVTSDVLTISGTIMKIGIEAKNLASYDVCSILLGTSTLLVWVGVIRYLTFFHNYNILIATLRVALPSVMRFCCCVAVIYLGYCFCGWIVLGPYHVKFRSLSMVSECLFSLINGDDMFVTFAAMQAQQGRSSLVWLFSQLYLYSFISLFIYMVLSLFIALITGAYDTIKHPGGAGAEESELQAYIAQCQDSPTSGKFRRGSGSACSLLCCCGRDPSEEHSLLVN
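Calcium fluorescence in TRPML1-DL cells induced overnight with Tet: a 110 s read after compound pin addition, then a 110 s antagonist read after challenge with 54-4 at 4 uM final (EC80).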
TRPV1 PAM: human TRPV1 potentiation; Q8NER1; TRPV1-expressing cells, Fluo-8 calcium influx, capsaicin EC20 potentiation; host cell line not named in the record; control for the full effect not named in the record; potentiation, % at 8.33 µM; 320,000 tested, 0.02% active; AID 540277; active means potentiation above 80%; inconclusive means 30% to 80%; inactive means below 30%; note: 0% is about no effect
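Cells expressing TRPV1 were dye-loaded with Fluo-8 and read kinetically: 10 s baseline, 3 min after compound (agonist portion), then 2 min after EC20 capsaicin (allosteric enhancer portion). Calcium-bound dye fluorescence at 480/520 nm.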
ClpP mod: qHTS Assay for Activators of ClpP; purified B. subtilis ClpP, FRET peptide cleavage, 20 min; ATP-dependent Clp protease proteolytic subunit (Bacillus subtilis (strain 168)), P80244; AID 651965, 2013; 340,000 tested, 1.9% active; Potency, µM (top dose mostly 57.5 µM), for inactives: top-dose activity change, negative = active; active = well fitted falling curve with a large enough effect; inconclusive = small, poorly fitted or top-dose-only effect; inactive = no such curve, though single readings can be large or run the other way; note: potency is the fitted concentration of half-maximal effect; the source files actives as falling curves though it sought activators and does not explain the sign; nearly all actives have a fitted effect of over 65% in size; many hits overshoot -100%
Target sequence (P80244 whole entry, looked up): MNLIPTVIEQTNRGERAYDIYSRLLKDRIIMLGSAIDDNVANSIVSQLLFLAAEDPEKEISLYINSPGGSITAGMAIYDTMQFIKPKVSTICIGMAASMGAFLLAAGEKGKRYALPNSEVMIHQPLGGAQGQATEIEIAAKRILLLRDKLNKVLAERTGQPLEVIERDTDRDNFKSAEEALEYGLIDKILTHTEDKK
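Buffer: 100 mM Tris/HCl pH8, 100 mM KCl, 0.05% low protease BSA, 2.5% glycerol, 0.01% Tween-20. ClpP 10 microg/mL final; 20 min RT; delta FRET normalized to ADEP and DMSO controls.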
Sfp inh: inhibitors of Bacillus subtilis Sfp phosphopantetheinyl transferase. Q9F4F7. Biochemical Sfp PPTase activity, qHTS. Potency, µM, without a hit: max response, negative = inhibition, actives largely listed as inhibitors. 310,000 tested, 3.5% active. AID 1490; active = well fitted inhibition curve with a large enough effect; inconclusive = small, poorly fitted or top-dose-only effect, or another doubt; inactive = no such curve, though single readings can be large or run the other way;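 note: the enzyme is Sfp with the accession as filed and its product quenches rhodamine fluorescence; potency is the fitted concentration of half-maximal effect; 0% = enzyme reaction without inhibitor and -100% = no enzyme wells; top concentration of the series not given in the record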
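Reaction rates are the 30-min fluorescence difference (ex 525, em 598 nm) in wells containing 15 nM Sfp, 5 uM rhodamine-CoA and 12.5 uM BHQ-2-YbbR at pH 7.6 with 10 mM MgCl2.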
PINK1 modulator: changes PINK1 expression. PINK1 immunofluorescence, high-content cytometry, 24 h. Potency, µM (highest dose often 76.6 µM), for inactives: at the highest dose activation (PINK1 increase), usual class: activators. 410,000 tested, 0.2% active; active = well fitted activation curve with a large enough effect; inconclusive = small, poorly fitted or top-dose-only effect; inactive = flat fitted curve, though single readings scatter; cell line not stated here;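 note: potency is the fitted concentration of half-maximal effect; % of control where 0% means no effect; nearly all actives have a fitted effect of over 65% in size; a mitochondrial uncoupler was the plate control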
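Readout is PINK1 immunofluorescence, quantified alongside mitochondrial, cell and nuclear markers by laser-scanning microplate cytometry. Cells from a stable line were exposed to compound titrations (5 concentrations) for 24 hours, with CCCP controls.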
TRPML1 ag: activates the human TRPML1 channel; activation, % (test concentration not listed); TRPML1-expressing cells, Ca2+ dye fluorescence, FDSS; host cell line not named in the record; reference of the full effect not given here; 410,000 tested, 0.12% active; Q9GZU1; AID 624414; in the data active = activation above about 50%; inconclusive = about 30% to 50%; inactive = below about 30%; note: 0% is about no effect; the text of the record puts the active cut at 80%
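Cells: TRPML1-DL, 1X Tet inducer, ~16 h at 37 degrees C/5% CO2. Dye: ABD Ca8 no-wash + quencher, 45-90 min RT. Read: 10 s baseline, compound add, 110 s agonist phase; 54-4 EC80 (4uM final), 110 s antagonist phase.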
Menin MLL FP FL: displaces fluorescein MLL peptide from human menin; FP activity change, % at 61.4 µM; 290,000 tested, under 10 active; Fluorescence polarization, fluorescein-MLL peptide displacement from menin; inconclusive = falling polarisation curve, or a change in total fluorescence; inactive = total fluorescence flat and polarisation flat or rising; no compound was filed as active; the % refers to the polarisation; negative = inhibition;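 note: % of control where 0% means no effect; inhibitors lower the polarisation; unlabelled MLL peptide was the positive control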
The depositor's hits bear a star; ? = inconclusive; nt = not tested or not shown; & = joins results of further samples; [ ] = dose if it differs, or a comment.

Compound	TRPML1 inh	TRPV1 PAM	ClpP mod	Sfp inh	PINK1 modulator	TRPML1 ag	Menin MLL FP FL
COc1ccc2c(c1)c1ncn(CCN3CCCCC3)c(=O)c1n2C	7	-17	16µM*	10%	-2.8%[38.3 µM]	-0.4	4.5
Cc1ccccc1CC1(CO)CCCN(C(=O)c2cc(Cl)ccc2F)C1 (configuration not stated)	0	-11	nt	-2%	-0.7%	1.3	-3.0
CN(C)C(CNC(=O)CCNC(=O)c1ccc(Cl)cc1)c1ccco1 (configuration not stated)	-8	-1	-1.6%	nt	-3.7%	-0.1	nt
COc1ccc(C(=O)NNC(=O)c2cc3cc(OC)ccc3oc2=O)cc1	-3	nt	1.4%	2%	14%	0.6	3.0
Cc1ccc(S(=O)(=O)NC(C)C(c2cccs2)N2CCOCC2)cc1 (configuration not stated)	29	-15	-0.5%	3%	0.9%	0.2	3.1
Cc1onc(-c2ccccc2Cl)c1C(=O)N1CCCCC1	-22	-4	nt	2%	4.1%	0.8	-1.1
Cc1cccc(-c2noc(C(C)NC(=O)c3ccco3)n2)c1 (configuration not stated)	16	-10	nt	-11%	0.2%	0.6	-1.3
CC1CCCC(NC(=O)CSc2nncs2)C1C (configuration not stated)	15	25	-2.8%	nt	-0.1%	0.0	nt
COc1ccc(NC(=O)CSc2nccn2Cc2ccco2)c(OC)c1	-9&68	3	1.1%&-3.5%	0%	-0.6%&1.9%	0.0&3.2	3.5
O=C(NC(Cc1ccccc1)C(=O)O)/C(=C/c1ccccc1)NC(=O)c1ccccc1 (configuration not stated)	-4	-6	-1.8%	31%[activator]	-2.2%	-1.9	0.8
CC(C)c1ccc(NC(=O)CN2C(=O)CSc3ccc(S(=O)(=O)N4CCCC4)cc32)cc1	7	nt	0.4%	nt	0.1%	1.8	nt
CC(C)Oc1ccc(S(=O)(=O)N2CCOCC2)cc1NC(=O)CC1OC(=O)c2ccccc21 (configuration not stated)	4	-12	-1.9%	nt	-1.8%	0.4	nt
O=C1CN(C(=O)COC(=O)COc2ccccc2)c2ccccc2N1	-3	nt	-2.0%	nt	-0.9%	0.0	nt
Cc1noc(NS(=O)(=O)c2ccc(N/C=C/C(=O)c3ccc4c(c3)OCO4)cc2)c1C	-9	-4	-1.7%	-3%	-1.4%	-0.2	3.9
COc1ccccc1NC(=O)Cc1cccs1	-3	-5	2.6%	9%	-0.9%	0.0	5.3
CC(C)c1cnc2c(c1SCC(=O)N1CCCCC1)c(=O)n(C)c(=O)n2C	12	nt	-12%	nt	0.2%	0.2	nt
COCCCn1c(SC(C)C(=O)Nc2c(C)n(C)n(-c3ccccc3)c2=O)n[nH]c1=O (configuration not stated)	-4	-4	-1.1%	nt	4.9%	-0.3	nt
O=c1cc(-c2ccc(O)cc2)oc2ccc(O)cc12	-4	3	nt	2%&2%	-1.5%&-0.8%	1.1	5.2&1.8
CCOc1ccc(-n2c(=O)c3c(C)c(C)sc3n(CC(=O)N3CCC(C)CC3)c2=O)cc1	-1	nt	-0.1%	nt	1.1%	4.6	nt
COc1ccc(C(=O)NC(C(=O)NCC(=O)Nc2c(C)cccc2C)C(C)C)cc1 (configuration not stated)	-17	-3	-0.6%	1%	-0.8%	0.1	4.4
CN(C)S(=O)(=O)c1ccc(Cl)c(NC(=O)CN2C(=O)NC3(CCc4ccccc43)C2=O)c1 (configuration not stated)	3	24	2.4%	nt	1.0%	0.5	nt
Oc1ccccc1Nc1nc(NCc2ccccc2)c2ccccc2n1	20	9	-2.0%	28µM*	-3.9%	-0.2	1.5
CC(Sc1nnc(Cc2cccs2)n1C1CCCCC1)C(=O)NCc1ccco1 (configuration not stated)	-12	-7	2.9%	5%	1.4%	0.7	5.1
N#C/C(=C\c1cn[nH]c1-c1ccc(Cl)cc1)C(=O)NC1CC1	7	3	3.5%	11%	0.1%	2.3	nt
Cc1ccc2cc(CN(CC3CCCO3)C(=O)c3cccs3)c(=O)[nH]c2c1 (configuration not stated)	0	5	nt	2%	1.0%	0.5	nt
Cc1ccc(OCC(=O)Nc2cccc(-c3nc4ccccc4s3)c2)cc1	77	nt	?	nt	0.9%	1.6	nt
O=C(O)c1ccc(/C=C2/SC(=S)N(Cc3ccccc3)C2=O)cc1	3	3	1.3%	-2%	5.9%	-0.3	2.3
COc1ccc2[nH]cc(C(=O)CNc3nccs3)c2c1	nt	nt	-10%	nt	-0.5%	-0.4	nt
CCN(c1ccc(NC(=O)CSc2nnc3nc(C)cc(C)n23)cc1)C(C)C	-1	2	-9.9%	4%	-0.3%	0.2	1.4
Nc1nc(-c2cccnc2)nn1C(=O)COc1ccccc1	12	-19	-6.1%	12%	-3.1%	-1.0	-0.1
Cc1cc(NC(=O)CN2C(=O)NC(CC(C)C)C2=O)no1 (configuration not stated)	-7	nt	-3.8%	nt	-1.6%	0.1	nt
CC(C)(C)n1nc2c(c1NC(=O)c1cccs1)CS(=O)C2 (configuration not stated)	12	-3	-8.7%	16%	0.4%	0.8	1.7
Cc1ccccc1NC(=O)c1ccc(F)c(S(=O)(=O)N2CCN(c3ccccc3F)CC2)c1	10	nt	-2.4%	nt	-1.1%	2.5	nt
N/C(=N\OC(=O)/C=C/c1ccccc1Cl)c1ccncc1	70	-5	nt	-5%	-0.2%	1.5	0.6
C[C@H](CO)N1C[C@H](C)[C@@H](CN(C)S(=O)(=O)c2ccccc2)Oc2c(NS(=O)(=O)c3cccs3)cccc2C1=O	7	nt	-0.7%	nt	-0.5%	-0.6	nt
CCOC(=O)C1=NNC(C(=O)c2ccc(OC)cc2)C1c1ccccc1 (configuration not stated)	-27	1	-2.8%	11%	3.1%	0.7	0.5
CCCN1CCN(CCCNC(=O)c2ccc3nc(N4CCCCC4)sc3c2)CC1	15	-11	?	3%	1.0%	-0.1	4.4
COc1ccc(C(=O)c2cn(Cc3ccc(C)cc3)c3cc4c(cc3c2=O)OCO4)cc1	-11	nt	0.6%	nt	2.7%	-0.5	nt
CCc1ccccc1NC(=O)Cn1c(=O)nc(-c2ccccc2)c2ccccc21	?	nt	-2.6%	nt	-0.3%	2.7	nt
Cc1nc2ccc(NC(=O)c3cc(Cl)ccn3)cc2s1	-4	-9	nt	-16%	-1.0%	-0.3	2.4
CCOc1ccc(NC(=O)N2CCC(CN3CCCCCC3)CC2)cc1	-4	nt	-4.4%	nt	0.7%	2.2	nt
CN(CC(=O)Nc1ccc(F)c(F)c1F)C(=O)/C=C/c1ccco1	-7	nt	nt	nt	-1.5%	-0.4	nt
CCCn1ncc(CN2CCC(Cc3cccc(F)c3)(C(=O)OCC)CC2)c1C	6	-1	nt	9%	-1.1%	0.3	-4.8
O=C1OCCC1Sc1nc2cc(Cl)ccc2s1 (configuration not stated)	19	-10	-2.2%	2%	-4.7%[38.3 µM]	2.6	-1.2
O=[N+]([O-])c1ccc(NCCOc2ccccc2Cl)nc1	-3	-5	-1.5%	6%	0.6%	2.1	6.0
CCCCNCCCOc1cccc(Cl)c1Cl	-10	14	-2.8%	-11%	nt	0.2	2.3
O=C(CSc1nnc(Cn2c(=O)sc3ccccc32)n1-c1ccccc1)NCC1CCCO1 (configuration not stated)	-1	2	-4.5%	?	1.9%	0.0	0.7
CCN(c1ccccc1)S(=O)(=O)c1ccc(Cl)c(NC(=O)CN(C)C2CCN(C)CC2)c1	3	2	nt	79µM*	0.5%	-1.1	5.8
O=C(Cc1ccccc1)NNC(=S)NC(=O)c1cccnc1	8	18	nt	?	1.2%	-0.1	-1.1
O=C(NCCN=C1NS(=O)(=O)c2ccccc21)c1ccncc1	-1	-13	-0.6%	8%	17%[38.3 µM]	1.7	-3.4
O=c1c2sc3ccccc3c2[nH]c(=S)n1CCN1CCOCC1	7	-3	nt	45µM*	2.7%	0.1	-2.5
CCCC(=O)Nc1ccc2c(c1)nc(CCNC(=O)c1ccccc1)n2C	25	0	0.3%	5%	4.4%[38.3 µM]	-0.3	2.3
Cc1ccc(NC(=O)CN2C(=O)CCSc3ccccc32)c(C)c1	?	nt	0.9%	nt	0.1%	1.4	nt
CC1CC(C)CN(Cc2nc(N)nc(Nc3ccccc3)n2)C1 (configuration not stated)	1	4	0.5%	21%	-1.1%	0.3	2.3
Cc1c(C(=O)Nc2ccc(F)cc2)c2ccccn2c1CCc1ccncc1	58	-3	nt	-18%	4.0%	1.0	?
COc1ccccc1N1C(=O)C(Cl)=C(N2CCCC2)C1=O	48	-26	?	-4%	0.3%	0.7	0.7
O=C(O)c1ccccc1-n1c2ccccc2c2ccccc21	-11	11	nt	4%	0.7%	0.4	-0.4
O=C(CNC(=O)N1CC(=O)Nc2ccccc21)NCCc1ccc(Cl)cc1	15	-6	-0.8%	8%	1.2%	-0.5	nt
Cc1cscn1	-1	-3	-0.3%	nt	2.8%	-0.7	nt
CCOC(=O)c1c(NC(=O)C2CCCCC2C(=O)O)sc2c1CCCCC2 (configuration not stated)	44	14	nt	-5%	-0.6%	1.9	-2.4

(listing goes on)
Compound	TRPML1 inh	TRPV1 PAM	ClpP mod	Sfp inh	PINK1 modulator	TRPML1 ag	Menin MLL FP FL
Nc1ccccc1C#CCCCCO	36	16	-4.3%	1%&2%	-1.0%	-0.8	2.7&8.4
COc1ccc(CNC(=O)Cn2c(=O)nc(-c3ccccc3)c3cc(Cl)ccc32)cc1OC	-1	nt	-1.4%	nt	0.5%	1.4	nt
CNC(=O)C1CCC(Cn2c(=O)c3sccc3n(CC(=O)NCc3cccc(OC)c3)c2=O)CC1 (configuration not stated)	-20	nt	-1.7%	nt	-0.5%	2.1	nt
CCOC(=O)c1cnc(N2CCN(c3ccc(OC)cc3)CC2)c2ccccc12	-1	nt	-1.6%	nt	0.1%	0.7	nt
COc1cccc2cc(-c3cc(=O)oc4ccc(OCC(C)=O)cc34)oc12	7	16	-2.0%	1%	2.3%	0.3	nt
